Vaccinia Venus: qHTS for Stage-Specific Inhibitors of Vaccinia Orthopoxvirus: Venus Reporter Primary qHTS; 330,000 tested, 0.46% active; Potency, µM (highest dose often 36.5 µM), for the others: top-dose activity change, negative = inhibition, most hits filed as inhibitors; Vaccinia virus Venus reporter expression, fluorescence; active means well fitted inhibition curve with a large enough effect; inconclusive means small, poorly fitted or top-dose-only effect; inactive means no such curve, though single readings can be large or run the other way; tested in A549 cells; further: nearly all actives have a fitted effect of over 30% in size; inactives centre near -10
Vaccinia mCherry: qHTS for Stage-Specific Inhibitors of Vaccinia Orthopoxvirus: mCherry Reporter Primary qHTS; Vaccinia virus mCherry reporter infection, fluorescence; about a quarter of the inactives have no number; Potency, µM (highest dose often 36.5 µM), without a hit: at the highest dose activity change, negative = inhibition, hits mostly inhibitors; 310,000 tested, 0.63% active; AID 720579, 2013; active = well fitted inhibition curve with a large enough effect; inconclusive = small, poorly fitted or top-dose-only effect; inactive = no such curve, though single readings can be large or run the other way; tested in A549 cells; further: nearly all actives have a fitted effect of over 35% in size; inactives centre near -10
An asterisk follows results filed as active; & = joins results of further samples. On the % scale 0 is the no-effect control and ±100 the full control effect; potency means the concentration at half of the fitted maximal effect.

What do the screens show for `COc1ccc(OC)c(S(=O)(=O)N(C(C)=O)c2ccc3oc(=O)sc3c2)c1`?
Vaccinia Venus: -2%; Vaccinia mCherry: -29%

How did Cc1cccc2c(=O)n(C(=O)c3ccccc3)c(N)nc12 do in these assays?
Vaccinia Venus: -3%; Vaccinia mCherry: 15%

Results for CCCCc1c(O)nc(SCC(=O)Nc2ccc3c(c2)CCC3)[nH]c1=O ?
Vaccinia Venus: -4%

Results for Cc1ccc(S(=O)(=O)NCC(=O)OCC(=O)N2CC(=O)Nc3ccccc32)cc1 ?
Vaccinia Venus: -12%; Vaccinia mCherry: -1%

What do the screens show for `COc1cc(OC)nc(NC(=O)CSc2nnc(-c3ccccc3)n2C2CCCCC2)n1`?
Vaccinia Venus: -13%; Vaccinia mCherry: -16%

What do the screens show for `Cc1cccc(NC(=O)Cn2c(O)c(N=NC(=O)c3ccccc3O)c3ccccc32)c1`?
Vaccinia Venus: -9%; Vaccinia mCherry: inactive

Results for COc1ccc(CCNC(=O)COC(=O)c2cnc(C)cn2)cc1OC ?
Vaccinia Venus: -2%; Vaccinia mCherry: -9%

How did CCOc1cccc(C(=O)Nc2cc(-c3ccc(C)cc3)no2)c1 do in these assays?
Vaccinia Venus: -24%; Vaccinia mCherry: -6%

How did Cc1nc([N+](=O)[O-])c(N2CCN(Cc3ccccc3)CC2)n1Cc1ccccc1 do in these assays?
Vaccinia Venus: -10%; Vaccinia mCherry: inactive

What do the screens show for `O=C(COC(=O)C12CC3CC(CC(C3)C1)C2)NCC1CCCO1` (centres undefined)?
Vaccinia Venus: -11%; Vaccinia mCherry: -8%

Results for CC(=O)Oc1ccc(/C=N/NC(=O)C2CCCN2S(=O)(=O)c2ccc(Cl)cc2)cc1 (centres undefined) ?
Vaccinia Venus: -15%

What do the screens show for `Cc1ccc2nc(-c3cccc(NC(=O)c4cccc5ccccc45)c3)oc2c1`?
Vaccinia Venus: -7%; Vaccinia mCherry: -7%

Results for O=C(CCOc1ccccc1)N1CCN(c2ccc(O)cc2)CC1 ?
Vaccinia Venus: -19%; Vaccinia mCherry: inconclusive

Results for C[C@H](O)[C@@H]1C(=O)N2CCc3ccc(N4CCN(C)CC4)cc3[C@@H]2C[C@@H]1N(C)C(=O)c1ccc(C#N)cc1 ?
Vaccinia Venus: 1%; Vaccinia mCherry: 1%

What do the screens show for `Cc1cc(C(=O)N2CCCC2(C)C(=O)NCC(C)C)nn1C(C)(C)C` (centres undefined)?
Vaccinia Venus: 5%; Vaccinia mCherry: 4%

How did O=c1oc2ccccc2cc1N1CCOCC1 do in these assays?
Vaccinia Venus: 2%; Vaccinia mCherry: -10%

What do the screens show for `CCC(C(=O)NCc1ccc(F)cc1)N(Cc1cccs1)C(=O)c1snc(C(N)=O)c1N` (centres undefined)?
Vaccinia Venus: 8%; Vaccinia mCherry: inactive

What do the screens show for `CCC1CCCCN1C(=O)Cn1c(=O)n(CCCC(=O)NCc2ccco2)c(=O)c2sccc21` (centres undefined)?
Vaccinia Venus: 9%; Vaccinia mCherry: -3%

How did C/C=C(\C)C(=O)Nc1cccc(C2=NOC3(C2)C[C@@H](C(N)=O)N(C(=O)c2cc([N+](=O)[O-])cc([N+](=O)[O-])c2C)C3)c1 (some centres undefined) do in these assays?
Vaccinia Venus: 3%; Vaccinia mCherry: -10%

What do the screens show for `S=c1nc(-c2ccccn2)c(-c2ccccn2)n[nH]1`?
Vaccinia Venus: -2%; Vaccinia mCherry: -3%

How did COc1cc(/C=N/NC(=S)NCCc2ccccc2)cc(OC)c1OC do in these assays?
Vaccinia Venus: -14%; Vaccinia mCherry: inactive

What do the screens show for `O=C(O)/C=C/c1coc2ccc(F)cc2c1=O`?
Vaccinia Venus: -12%; Vaccinia mCherry: -13%

Results for CC(=O)Nc1cc(-c2cccnc2)cn2c(-c3ccc(F)cc3)cnc12 ?
Vaccinia Venus: -11%; Vaccinia mCherry: inactive

What do the screens show for `N/C(=N\OC(=O)c1ccc(F)cc1)c1ccc(Br)cc1`?
Vaccinia Venus: -10%; Vaccinia mCherry: -14%

Results for Cc1cc(C)cc(C(=O)NC(CC(N)=O)c2ccc(N3CCN(c4ccccn4)CC3)c([N+](=O)[O-])c2)c1 (centres undefined) ?
Vaccinia Venus: -12%; Vaccinia mCherry: 9%

What do the screens show for `CCCCCCCCN1C(=O)[C@H](CC(=O)N2CCOCC2)C[C@@]2(C(=O)OC)CCCCC=C12`?
Vaccinia Venus: -7%; Vaccinia mCherry: -20%

What do the screens show for `Cc1cc(C)nc(NC(=O)c2csnn2)c1`?
Vaccinia Venus: -11%; Vaccinia mCherry: inactive

Results for O=C(COc1ccc2ccc(=O)oc2c1)N1CCN(c2ccc(F)cc2)CC1 ?
Vaccinia Venus: -14%; Vaccinia mCherry: -4%

Results for Cc1cccc(-c2nc(NCCCN(C)C)c3ccccc3n2)c1 ?
Vaccinia Venus: -19%; Vaccinia mCherry: 1%

Results for CC(=O)Nc1cccc(NC(=O)C2CCCN2C(=O)Nc2cccc(C)c2)c1 (centres undefined) ?
Vaccinia Venus: -2%; Vaccinia mCherry: -14%

What do the screens show for `C#CCOCCOCCOCCNc1nc(N2CCN(C(=O)CCCCCCCCCCNC(=O)Cn3cc(CCCCCN)nn3)CC2)nc(N2CCN(C(=O)CCCCCCCCCCNC(=O)[C@@H]([C@H](C)O)n3cc(C)nn3)CC2)n1`?
Vaccinia Venus: 10µM*; Vaccinia mCherry: inconclusive

How did COc1ccc(NC(=O)C2CCCN2S(=O)(=O)c2ccc3c(c2)CCC(=O)N3)c(OC)c1 (centres undefined) do in these assays?
Vaccinia Venus: -11%; Vaccinia mCherry: -11%

Results for COc1cc2c(cc1OC)C(C)N(C(=S)Nc1ccccc1)CC2 (centres undefined) ?
Vaccinia Venus: -5%; Vaccinia mCherry: -11%

How did COc1ccc(C(=O)CSc2nnc(NC(=O)C3CC(=O)N(c4ccccc4)C3)s2)cc1 (centres undefined) do in these assays?
Vaccinia Venus: -5%; Vaccinia mCherry: inactive

How did COc1ccccc1OCCCOc1ccc(/C=C2\SC(=O)NC2=O)cc1OC do in these assays?
Vaccinia Venus: -8%; Vaccinia mCherry: -12%

What do the screens show for `O=C(Nc1ccccc1)N1CCn2c1nc1ccccc12`?
Vaccinia Venus: -16%

How did Cc1ccc(SCC(=O)OCC(=O)N(CCC#N)c2ccccc2)cc1C do in these assays?
Vaccinia Venus: -6%; Vaccinia mCherry: -10%

Results for CCc1ccc(NC(=S)Nc2cccc3cnccc23)cc1 ?
Vaccinia Venus: -1%; Vaccinia mCherry: -13%

Results for COC(=O)c1ccc(NC(=O)CSc2nc3cccnc3n2C)cc1 ?
Vaccinia Venus: -25%; Vaccinia mCherry: inconclusive

How did COc1ccc(OC)c(-c2cc(Cl)c3c(c2)CC(CNC(=O)c2coc4c2C(=O)CCC4)O3)c1 (centres undefined) do in these assays?
Vaccinia Venus: 3%; Vaccinia mCherry: -10%

What do the screens show for `CCOc1cc(C2C3=C(CCCC3=O)NC3=C2C(=O)CCC3)cc(Cl)c1O`?
Vaccinia Venus: -12%; Vaccinia mCherry: -13%

What do the screens show for `O=C(CCc1ccc(S(=O)(=O)N2CCCCC2)cc1)c1nnc(-c2ccccc2)o1`?
Vaccinia Venus: -2%

What do the screens show for `COc1ccc(CNC(NC(=O)c2ccccc2)(C(F)(F)F)C(F)(F)F)cc1`?
Vaccinia Venus: -13%; Vaccinia mCherry: -29%

How did Cn1c(=O)n(C)c2cc(NS(=O)(=O)c3cccs3)ccc21 do in these assays?
Vaccinia Venus: -4%; Vaccinia mCherry: inactive

Results for O=C(CSc1ccc(-c2ccccc2)nn1)c1ccccc1 ?
Vaccinia Venus: -16%; Vaccinia mCherry: -17%

What do the screens show for `COC(=O)[C@@]1(Cc2ccc(F)cc2)[C@H]2c3cc(C(=O)N4CCCC4)n(Cc4cc(C)n(C)n4)c3C[C@H]2CN1C(=O)c1ccccc1`?
Vaccinia Venus: -22%; Vaccinia mCherry: -29%

How did NS(=O)(=O)c1ccc(CCNc2ncnc3c2cnn3-c2cccc(Cl)c2)cc1 do in these assays?
Vaccinia Venus: 2%; Vaccinia mCherry: -16%

Results for COc1ccc(CN2CCC[C@]3(N[C@H](c4ccc(C)cc4)[C@@H]4C(=O)N(Cc5ccccc5)C(=O)[C@@H]43)C2=O)cc1 ?
Vaccinia Venus: -21%; Vaccinia mCherry: inconclusive

How did COc1ccc(C2C(C(=O)NCC3CCCO3)c3cc(OC)c(OC)cc3C(=O)N2C)cc1OC (centres undefined) do in these assays?
Vaccinia Venus: -5%; Vaccinia mCherry: -12%

How did COc1ccc(NC(=S)NC23CN4CN(CN(C4)C2)C3)cc1 do in these assays?
Vaccinia Venus: -16%; Vaccinia mCherry: -16%

Results for Cc1ccc(C)c(N2CCN(C(=O)CCS(=O)(=O)c3cccc4nonc34)CC2)c1 ?
Vaccinia Venus: -19%; Vaccinia mCherry: -24%

How did CC(C(=O)O)c1ccc2c(c1)[nH]c1ccc(Cl)cc12 (centres undefined) do in these assays?
Vaccinia Venus: inconclusive; Vaccinia mCherry: -21%&-11%

What do the screens show for `O=C(C1=C[C@H](c2ccc3c(c2)OCO3)C[C@H](OCc2ccc(CO)cc2)O1)N1CCN(Cc2ccc3c(c2)OCO3)CC1`?
Vaccinia Venus: inconclusive; Vaccinia mCherry: inconclusive

What do the screens show for `CS(=O)(=O)N1CCC(C(=O)N2CCN(Cc3ccccc3)CC2)CC1`?
Vaccinia Venus: -12%; Vaccinia mCherry: inactive

What do the screens show for `CCOC(=O)[C@]12CCC=C1N(Cc1ccccc1)C(=O)[C@H](CC(=O)NCCC(C)C)C2`?
Vaccinia Venus: 7%; Vaccinia mCherry: -3%

Results for O=C(OCCCc1cc2ccccc2c(=O)o1)c1ccccc1C(F)(F)F ?
Vaccinia Venus: -7%; Vaccinia mCherry: -3%

Results for O=C(NNS(=O)(=O)c1ccccc1)c1ccccc1-n1cccc1 ?
Vaccinia Venus: -4%; Vaccinia mCherry: inactive

What do the screens show for `Cc1ccc(S(=O)(=O)N(C)c2cc(S(=O)(=O)N3CCOCC3)c(C)cc2C)cc1`?
Vaccinia Venus: -7%; Vaccinia mCherry: -8%

What do the screens show for `O=C1CCC[C@H]2c3[nH]c4ccccc4c3CCN12`?
Vaccinia Venus: 1%; Vaccinia mCherry: -4%

What do the screens show for `Cc1ccc(S(=O)(=O)N2C/C=C\CN(S(=O)(=O)c3ccccc3Br)CC2)cc1`?
Vaccinia Venus: 0%; Vaccinia mCherry: inactive

Results for Cc1ccc(CNC(=O)c2cnc3ccccc3n2)cc1 ?
Vaccinia Venus: -4%; Vaccinia mCherry: -12%

How did CCC(=O)N1CCc2cc(Br)cc(S(=O)(=O)N3CCC(C(=O)Nc4ccc(OC)cc4)CC3)c21 do in these assays?
Vaccinia Venus: -9%; Vaccinia mCherry: -17%

How did CCC1(c2ccccc2)NC(=O)N(CC(=O)Nc2ccc(Cl)c(S(=O)(=O)N3CCCCC3)c2)C1=O (centres undefined) do in these assays?
Vaccinia Venus: -26%; Vaccinia mCherry: inconclusive

How did CCN(Cc1nc(-c2ccccc2)no1)C(=O)c1ccoc1C do in these assays?
Vaccinia Venus: -9%; Vaccinia mCherry: 2%

What do the screens show for `C=Cc1ccc(N=Cc2c(O)ccc3ccccc23)cc1`?
Vaccinia Venus: -20%; Vaccinia mCherry: inconclusive

What do the screens show for `Cc1ccc(OCC(=O)Nc2ccc(Cl)cc2C(=O)c2ccccc2)c(Br)c1`?
Vaccinia Venus: -9%; Vaccinia mCherry: -9%

What do the screens show for `CCc1noc(C)c1C(=O)N1CCN(S(=O)(=O)c2ccc(C)cc2)CC1`?
Vaccinia Venus: -8%; Vaccinia mCherry: -5%

Results for CC[C@@]1(C(=O)OC)N[C@H](CN(C)C(=O)COC)[C@@H]2C(=O)N(Cc3ccccc3)C(=O)[C@@H]21 ?
Vaccinia Venus: -20%; Vaccinia mCherry: -23%

What do the screens show for `Cc1csc(Nc2ccccc2)n1`?
Vaccinia Venus: -8%; Vaccinia mCherry: 1%

Results for COc1cccc(OC)c1C(=O)NC(=S)N1CCOCC1 ?
Vaccinia Venus: -5%; Vaccinia mCherry: -10%

What do the screens show for `CCOc1cc(Br)c(Br)c(C=Nc2ccc(NC(C)=O)cc2)c1O`?
Vaccinia Venus: -12%; Vaccinia mCherry: -1%

How did Cc1ccsc1C(=O)OCC(=O)NCc1ccccc1 do in these assays?
Vaccinia Venus: -18%; Vaccinia mCherry: -20%

Retrieved one by one from above:
How did CCC(=O)N1CCc2cc(Br)cc(S(=O)(=O)N3CCC(C(=O)Nc4ccc(OC)cc4)CC3)c21 do in these assays?
Vaccinia Venus: -9%; Vaccinia mCherry: -17%

Results for COc1cccc(OC)c1C(=O)NC(=S)N1CCOCC1 ?
Vaccinia Venus: -5%; Vaccinia mCherry: -10%

What do the screens show for `N/C(=N\OC(=O)c1ccc(F)cc1)c1ccc(Br)cc1`?
Vaccinia Venus: -10%; Vaccinia mCherry: -14%

What do the screens show for `O=C(COC(=O)C12CC3CC(CC(C3)C1)C2)NCC1CCCO1` (centres undefined)?
Vaccinia Venus: -11%; Vaccinia mCherry: -8%

Structural class: the compounds so far with a CF3 group (2)
What do the screens show for `COc1ccc(CNC(NC(=O)c2ccccc2)(C(F)(F)F)C(F)(F)F)cc1`?
Vaccinia Venus: -13%; Vaccinia mCherry: -29%

Results for O=C(OCCCc1cc2ccccc2c(=O)o1)c1ccccc1C(F)(F)F ?
Vaccinia Venus: -7%; Vaccinia mCherry: -3%
